# SmPrx2 inh = inhibitors of Schistosoma mansoni peroxiredoxin 2; S. mansoni Prx2 activity coupled to TGR/GSH (TGR is thioredoxin glutathione reductase), NADPH fluorescence loss, qHTS; some inactives read as strong as hits; Potency, µM; hit rate 0.07% among 65,000; active means full or partial inhibition curve with a strong effect at the top dose; inconclusive means weaker partial or single-point curve; inactive means no accepted curve; further: series up to 57 µM; many of its hits are not listed in these tables
#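 Prx2 activity was followed as the loss of NADPH fluorescence (ex 365/em 450 nm), read every 30 sec for 8 min after H2O2 start. The enzyme mix (50 nM Prx2, 25 nM TGR, GSH, NADPH; pH 7.4 phosphate buffer) was incubated with compound for 15 min at room temperature first.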
# LT uptake inh = inhibitors of anthrax lethal toxin internalization; Cells, anthrax lethal toxin internalization, FRET ratio (460/530); Potency, µM (top dose mostly 40 µM), without a hit: at the top dose activity change, negative = inhibition, usual class: inhibitors; hit rate 0.67% among 70,000; active = well fitted falling ratio curve with the 530 nm signal flat; inconclusive = other ratio curves, or a change in one channel alone; inactive = flat curves in the ratio and both channels; the % refers to the ratio; further: on the % scale 0 is the no-effect control and ±100 the full control effect; nearly all actives have a fitted effect of over 50% in size; tested in ME-180 cells; beta-lactamase reporter
# * marks the source's active call; other numbers are inactive results; ? = inconclusive; / = not tested or not shown; [ ] = another dose, or the depositor's remark. Potency means the concentration at half of the fitted maximal effect.
# Second line of a record – LT uptake inh, SmPrx2 inh
O=c1c(CCc2ccccc2)nc2cnc(Oc3ccccc3)nc2n1C[C@H]1CCCO1
 : -28%, >11
Cc1c(N=C2NC(=O)C(CC(=O)Nc3ccccc3)S2)c(=O)n(-c2ccccc2)n1C (configuration not stated)
 : 7%, >57
Cc1noc(C)c1CSc1nnc(C)c(=O)[nH]1
 : 15%, >57
CCOC(=O)c1ccc(S(=O)(=O)NC2CCCCCCC2)n1C
 : 11%, >57
CSC1CCCCC1(O)CSc1nc2c(cc1C#N)CCCC2 (configuration not stated)
 : -9%, >57
CCCn1c(NCc2cccc(OC)c2OC)nc2ccccc21
 : -17%, >57
CN1CC=C(c2c[nH]c3ccccc23)CC1
 : -13%, >57
CCOCCOC(=O)C(C)Sc1n[nH]c(=O)[nH]c1=O (configuration not stated)
 : -1%, /
CCCC(c1nnnn1CC(=O)OCC)N(Cc1cc2c(C)cc(C)cc2[nH]c1=O)C1CCCC1 (configuration not stated)
 : 0%, >57
Cc1nn(CC(=O)Nc2nnc(CC(=O)N3CCCC3)s2)c(=O)c2ccccc12
 : -1%, >57
CCn1c(CSc2nc3ccccc3s2)nnc1SCC(=O)c1ccc2c(c1)OCCO2
 : ?, >57
Cc1ccc(-c2nn(CC(=O)NCCN3CCOCC3)c(=O)c3ccccc23)cc1
 : -1%, >57
Cc1ccc([C@@]2(C)CC/C(=N/N=C3\CC[C@](C)(c4ccc(C)c(C)c4)c4cc(C)c(C)cc43)c3cc(C)c(C)cc32)cc1C
 : -1%[8 µM], >57
Cn1cccc1C(=S)N1CCOCC1
 : -17%, >57
Cc1nc2ccc(NC(=O)c3ccc(S(=O)(=O)N4CCOCC4)cc3)cc2s1
 : -7%, /
Cc1cc(=O)[nH]c(Nc2c(C)n(C)n(-c3ccccc3)c2=O)n1
 : /, >57
O=C(Cc1ccc(F)cc1)Nc1c2c(nn1-c1cccc(Cl)c1)CS(=O)C2 (configuration not stated)
 : 6%, >57
CC(C)N1C(=O)CCC1C(=O)N1CCC(Cc2ccccc2)CC1 (configuration not stated)
 : 13%, >57
Cc1cccc(N2CCN(S(=O)(=O)c3ccc4c(c3)n(C)c(=O)c(=O)n4C)CC2C)c1 (configuration not stated)
 : 12%, >57
Cc1ccc(NC(=O)NC2=N/C(=C(/C#N)C(=O)N3CCCC3)c3ccccc32)cc1
 : -2%, >57

# Laid out differently: three of the compounds above
SMILES: Cc1cc(=O)[nH]c(Nc2c(C)n(C)n(-c3ccccc3)c2=O)n1
  LT uptake inh: /	SmPrx2 inh: >57
SMILES: O=C(Cc1ccc(F)cc1)Nc1c2c(nn1-c1cccc(Cl)c1)CS(=O)C2 (configuration not stated)
  LT uptake inh: 6%	SmPrx2 inh: >57
SMILES: CC(C)N1C(=O)CCC1C(=O)N1CCC(Cc2ccccc2)CC1 (configuration not stated)
  LT uptake inh: 13%	SmPrx2 inh: >57

# (further entries)
# Second line of a record – LT uptake inh, SmPrx2 inh
COc1ccc2nc(NC(=O)c3ccc(Br)s3)sc2c1
 : -17%, >57
Cc1nc(N2CCOCC2)c2nc(-c3ccccc3)n(CC3CCN(C)CC3)c2n1
 : -1%, /
Cn1c(=O)c(-c2ccc(F)cc2)nc2cnc(N3CCOCC3)nc21
 : ?, >57
COC(=O)C/C=C\[C@@H](C)[C@@H](/C=N\OC[C@@H](O)COCc1ccco1)NS(=O)(=O)c1ccc(C)cc1
 : -4%[8 µM], /
Cc1cc(Cl)nc2ccc(Cc3ccc4nc(Cl)cc(C)c4c3)cc12
 : -20%[8 µM], >57
CS(=O)(=O)Nc1ccc2c3c(cccc13)CC2
 : 11%, >57
CCOC(=O)CN=C1CC(C)(C)CC2=C1Sc1ncnc(N(C)C)c1N2
 : -17%, >57
Clc1ccc(-c2noc(COc3ccccc3)n2)cc1
 : -23%, /
O=C(Nc1ccc2oc(-c3ccccc3)nc2c1)c1ccncc1
 : -21%, /
Cc1ccc(S(=O)(=O)NCCCNS(C)(=O)=O)cc1
 : 5%, >57
CCOC(=O)c1cnn2c(C(F)(F)F)cc(-c3cn(C)nc3C)nc12
 : 16%, >57
O=C(c1cccc(F)c1)N1CCC[C@@]2(CCN(c3ccncc3)C2)C1
 : -3%, >57
COc1cccc2c1C(=N)c1c(O)c3c(c(O)c1C2=O)C[C@](O)(C(C)=O)C[C@@H]3O[C@H]1C[C@H](N)[C@@H](O)[C@H](C)O1
 : -4%[8 µM], >57
O=S(=O)(c1ccc(Br)cc1)N1CCN(S(=O)(=O)c2ccc(Br)cc2)CC1
 : -9%[8 µM], >57
O=C(CSc1nnc(CNc2ccccc2)o1)N1CCCc2ccccc21
 : -3%, >57
COc1cccc(OC)c1C(=O)NCCN1CCN(C(=O)c2c(OC)cccc2OC)CC1
 : 1%, >57
CN(C)CCN(c1ccccn1)c1ccccn1
 : -13%[8 µM], >57
CCOC(=O)C1CCCN(C(=O)C2CCCN(S(=O)(=O)c3ccc4c(c3)oc(=O)n4C)C2)C1 (configuration not stated)
 : 0%, >57
C=Cc1ccccn1
 : 1%, /
Cc1cccnc1-n1c(CCN2C(=O)c3ccccc3C2=O)nc2ccccc2c1=O
 : 22%, /

# Second line of a record – LT uptake inh, SmPrx2 inh
CCS(=O)(=O)N1CCC(C(=O)Nc2cc(Cl)ccc2O)CC1
 : -11%, >57
Cn1c(=O)c(C#N)c(-c2ccccc2)n2cnnc12
 : 5%, >57
CN(C)c1ccc(/C=c2\sc3nc(-c4ccccc4)nn3c2=O)cc1
 : 14%, >57
O=C(c1ccc(-c2ccccc2)cc1)N1CCC(C(=O)N2CCCC2)CC1
 : -5%, >57
COc1ccc(C)cc1S(=O)(=O)N(C)CC(=O)Nc1ccc2c(c1)OCCO2
 : -6%, >57
CC1(C)CC(=O)C=C(NCCCNC2CCCCC2)C1
 : -8%, >57
Cc1ccc(C(C)C)c(OCc2nc(-c3nonc3N)no2)c1
 : ?, >57
CN(C)c1ccc(-c2cncnc2NCc2cccs2)cc1
 : -18%, >57
CN(C)c1cc(N)c2ccccc2n1 (tested in a mixture with another compound)
 : -6%, >57
COC(=O)N1[C@H](C)C=C[C@]1(Cc1ccccc1)C(=O)NCc1ccc(C)o1
 : -14%, /
Clc1ccc(-n2ncc3c(NCC4CCCO4)ncnc32)cc1 (configuration not stated)
 : ?, >57
Cc1onc(-c2c(Cl)cccc2Cl)c1C(=O)NCCN1CCOCC1
 : ?, >57
COc1cccc2cc(-c3nnc(SCC(=O)NCc4ccccc4)n3C)oc12
 : -12%, >57
O=C(Nc1ccncc1)c1cc2ccccc2oc1=O
 : 0%, >57
Cc1noc(/C=C/N(C)C)c1S(=O)(=O)N1CCCC(C(=O)NCc2ccc(F)cc2)C1 (configuration not stated)
 : -14%, /
COc1cccc(NC(=O)c2ccccc2-c2nc(-c3cccc(C)c3)no2)c1
 : -24%, >57
Cc1ccc(NC(=O)C(C)N2CCOCC2)c(C(=O)c2ccccc2)c1 (configuration not stated)
 : -5%, /
Cc1cc(NC(=O)CN2CCCCC2C)nc2c1c(=O)oc1ccccc12 (configuration not stated)
 : 6%, >57
CCCCn1c(NC(C)=O)c(C#N)c2nc3ccccc3nc21
 : ?, >57
O=C(NC1CCCCC1)/C(=N\O)c1ccccn1
 : -17%, >57

# Second line of a record – LT uptake inh, SmPrx2 inh
CC1CCCCN1CCNS(=O)(=O)c1ccc2c(c1)oc(=O)n2C (configuration not stated)
 : 2%, >57
CCc1c(-c2ccccc2)nc2nc(C)c(C)nn12
 : ?, >57
CC(=O)c1ccc(OCCCC(=O)OCc2nnc(-c3ccc(Cl)cc3)o2)cc1
 : -6%, >57
Cc1sc2c(c1C)CN(C1CC(C)(C)NC(C)(C)C1)CN2C(=O)c1ccco1
 : -11%, >57
CSc1ncnc2c1ncn2CC(=O)[C@H]1CC[C@H]2[C@H]3CCC4=CC(=O)CC[C@@]4(C)[C@@H]3CC[C@@]12C
 : ?, >57
CCCCP(=O)(CCCC)Cc1ccccc1O
 : -1%, /
OCCN(Cc1ccccc1)Cc1cccc(C(F)(F)F)c1
 : -22%, >57
Cc1ccc(C(=O)C2CCN(CC(=O)NC3CCCCC3)CC2)cc1
 : -19%, >57
CCC(Sc1ccc2nnc(-c3ccc(F)cc3)n2n1)C(=O)OC (configuration not stated)
 : -3%, >57
C(=N\n1cnnc1)/c1cn(-c2cccs2)nc1-c1ccccc1
 : 4%, >57
COc1ccc(Cl)cc1NC(=O)c1oc(C)nc1C
 : -1%, >57
C[C@H](NC(=O)Nc1cccc(C(F)(F)F)c1)C(=O)O
 : /, >57
CCOC(=O)N1CCN(C(=O)CSc2nnc(COc3ccccc3)o2)CC1
 : -3%, >57
Cc1ccccc1OC(=O)CCC(=O)OCCCC(F)(F)C(F)(F)F
 : 12%, /
COc1ccc(Cl)cc1NC(=O)CN1C(=O)CSC1=O
 : -5%, >57
Cc1ccc(CN2C(=O)CCC2C(=O)N2CCN(c3ccc(F)cc3)CC2)cc1 (configuration not stated)
 : -5%, >57
CCCC(=O)NCCCc1nc2ccccc2n1C(C)C
 : 0%, >57
Cc1ccc(C)c(NC(=O)CSc2nnc(CCCCCNC(=O)OC(C)(C)C)o2)c1
 : /, >57
O=C(Nc1ccccc1Cl)N1CCN(c2ccc3nnc(-c4ccccc4)n3n2)CC1
 : -15%, >57
Cc1ccc(-c2cc(C(=O)N3CCOCC3)c3ccccc3n2)cc1
 : -3%, /

# Second line of a record – LT uptake inh, SmPrx2 inh
Cc1c(/N=C/c2ccco2)n(Cc2ccccc2)c2ccccc12
 : ?, /
O=P(c1ccccc1)(c1ccccc1)C1CCCO1 (configuration not stated)
 : 12%, >57
COc1ccc(C(=O)N2CCC[C@@]3(CCN(C)C3)C2)cc1
 : 7%, >57
O=C(CSc1nnc(Cc2ccccc2)n1Cc1ccco1)NC1CCCC1
 : -2%, >57
O=C(Nc1ccccc1)N(CCc1ccncc1)C1CCCCC1
 : -5%, >57
CC(C)Sc1nc2c(c(=O)[nH]c(=O)n2C)n1CCc1ccccc1
 : -4%, >57
O=C(CN(Cc1ccccc1)C(=O)CCC(=O)Nc1nccs1)NCc1ccco1
 : 14%, >57
Cn1c(=NC(=O)CSCC(=O)N2CCCC2)sc2ccccc21
 : 12%, >57
COc1cccc(C2N(c3ccccn3)C(=O)C3CCCN32)c1OC (configuration not stated)
 : -1%, >57
O=C(Nc1ccc(F)cc1)c1cccnc1N1CCOCC1
 : -10%, >57
CC(=O)O[C@H]1C[C@@H](O[C@@H]2[C@H](C)O[C@H](O[C@@H]3[C@H](C)O[C@H](O[C@@H]4CC[C@@]5(C)[C@@H](CC[C@]6(C)[C@]5(C)C[C@H](O)[C@]5(C)[C@@H](C7=CC(=O)OC7)CC[C@@]56O)C4)C[C@@H]3O)C[C@@H]2O)O[C@@H](C)[C@H]1O[C@H]1O[C@@H](CO)[C@@H](O)[C@@H](O)[C@@H]1O
 : ?, >57
Cc1ccc(N(CC(=O)NCc2cccs2)S(=O)(=O)c2cccs2)cc1
 : -2%, >57
COCCCNC(=O)C1CCN(C(=O)Nc2ccc(Cl)cc2)CC1
 : -14%, >57
COc1ccc(NC2c3ccccc3C(=O)N2Cc2ccco2)cc1OC (configuration not stated)
 : 23%, >57
CCOC(=O)c1sc(NC(=O)C2CCCO2)c(C(=O)OCC)c1C (configuration not stated)
 : -4%, >57
COc1ccc(NC(=O)COC(=O)c2ccc(Br)o2)cc1OC
 : -8%, >57
CO[C@H]1COC(=O)C/C=C\[C@@H](C)[C@H](OC)COC(=O)[C@H]2CCCN2C(=O)C/C=C\[C@@H]1C
 : ?, /
CCc1nccn1S(=O)(=O)c1ccc(OC)c(OC)c1
 : -6%, >57
C[C@H](O)C(=O)Nc1c(I)c(C(=O)NC(CO)CO)c(I)c(C(=O)NC(CO)CO)c1I
 : -3%[3.58 µM], >57
CS(=O)(=O)N1CCN(Cc2ccccc2C(F)(F)F)CC1
 : -10%, /

# Second line of a record – LT uptake inh, SmPrx2 inh
Cc1[nH]c2ccccc2c1Cc1nnc(SCC(=O)NCc2ccco2)o1
 : -20%, >57
COCCCNC(=O)CCn1c(=O)c2ccccc2n(CC(=O)Nc2ccccc2C)c1=O
 : -3%, >57
CCCCCCC(=O)N(O)C1CC(=O)N(c2ccc(Br)cc2)C1=O (configuration not stated)
 : 2%, >57
CCOc1ccc2nc(NC(=O)CS(=O)(=O)c3ccccc3)sc2c1
 : -27%, >57
O=c1c2c(nc3nc(Cc4ccccc4)[nH]n13)CCC2
 : 9%, >57
Cc1cccn2c(=O)c(C=Nc3ccc(Cl)cc3)c(NCCO)nc12
 : 3%, >57
CC1(C)CC(=O)C(C=NCCN2CCN(C(=O)NC34CC5CC(CC(C5)C3)C4)CC2)=C(O)C1
 : -12%, /
Cc1cc(-c2nnc(SCc3ccccn3)o2)no1
 : -8%, >57
O=C(NCCCN1CCOCC1)C1(c2ccccc2)CCCC1
 : 2%, >57
O=C(CN1CCN(C(=O)c2ccccc2)CC1)Nc1ccc(Br)cn1
 : -6%, >57
COc1cc(C)nc(OCCNS(=O)(=O)c2cc(C)ccc2C)n1
 : -7%, >57
CCn1c(N2CCN(CC(=O)c3c[nH]c4ccccc34)CC2)nc2c1c(=O)[nH]c(=O)n2C
 : 5%, >57
COc1cccc(C(=O)N2CCN(C(=O)c3cccc(F)c3)CC2)c1
 : 15%, >57
COc1cc2nc(=S)n3[nH]c(CCn4nc(C)cc4C)nc3c2cc1OC
 : 6%, >57

# Bioassay records: PubChem, National Center for Advancing Translational Sciences (NCATS)

# Some of the compounds tested, so the mix of outcomes need not match the whole.
